Source: PubChem
NPYLR7 agonist: agonists of mosquito NPYLR7 receptor, primary screen, cell-based, Aedes aegypti, calcium fluorescence, mosquito biting behavior. Aedes aegypti neuropeptide Y-like receptor 7 (NPYLR7). HEK293T NPYLR7/Galpha15, GCaMP6s calcium fluorescence. activation, % at 10 µM. actives 0.15% (n = 270,000); in the data active = activation above about 40%;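 note: 0% = vehicle and 100% = reference agonist at the receptor; some compounds past the cut are filed as inactive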
NPYLR7 agonist max-min: further read-out of NPYLR7 agonist, marked with its call; activation, %; measured here: Max-Min RFU normalised activation; some inactives read as strong as hits;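 span of the calcium signal over five minutes; 0% = vehicle and 100% = native peptide agonist; compound fluorescence can raise it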
Starred values were filed as active, the others as inactive; & = joins results of further samples.

The first 4 records (preview)
SMILES	NPYLR7 agonist	NPYLR7 agonist max-min
COc1ccc2oc(=O)c(C(=O)NNC(=O)c3ccccc3)cc2c1	6.3	1.3
CC(=O)c1cc(-n2c(CCCO)nc3ccccc32)cs1	9.5	-1.2
Cc1ccn2c(=O)nc(SCC(=O)N3CCCCCC3)nc2c1	1.6	-2.0
C=CCn1nnc(NC(=O)c2ccc(OCC)c(Cl)c2)n1	-1.0	-2.8

Main list (from the top)
SMILES	NPYLR7 agonist	NPYLR7 agonist max-min
COc1ccc2oc(=O)c(C(=O)NNC(=O)c3ccccc3)cc2c1	6.3	1.3
CC(=O)c1cc(-n2c(CCCO)nc3ccccc32)cs1	9.5	-1.2
Cc1ccn2c(=O)nc(SCC(=O)N3CCCCCC3)nc2c1	1.6	-2.0
C=CCn1nnc(NC(=O)c2ccc(OCC)c(Cl)c2)n1	-1.0	-2.8
Cc1cc(=O)n2c3ccccc3n(CC(O)CNc3ccc(C(C)C)cc3)c2c1C#N (configuration not stated)	2.7	8.7
COc1ccc(CNc2cc(OCc3cc(OC)ccc3OC)ncn2)cc1	-9.8	-13.7
CC(C)c1nc(CCNC(=O)c2ccc3cc[nH]c3c2)cs1	-1.4	-1.6
CN(C)CC1CCCCC1O (configuration not stated)	0.6	1.5
CC1Cn2c(COc3ccccc3)nnc2S1 (configuration not stated)	-0.8	-1.8
O=C1CCC(CCC(=O)N2CCCC(Nc3ccccc3)C2)=NN1 (configuration not stated)	1.2	-1.6
COC(=O)c1cc2c(=O)n(C3CCCC3)ccc2nc1C	-9.5	-11.5
CCc1ccc(-c2ccc(SCc3cccnc3)nn2)cc1	1.8	1.6
Cc1ccccc1CO[C@]1(C(=O)NN2CCOCC2)CC(OCc2ccc(C#N)cc2)[C@H](O)[C@H](O)C1 (some centres not stated)	7.9	21.1
CCOC(=O)C1(Cc2ccccc2F)CCCN(C(=O)c2snnc2C)C1 (configuration not stated)	-5.8	-11.0
O=C(CSc1nc(Cl)cc(N2CCN(c3ccccc3F)CC2)n1)NC1CCN(Cc2ccccc2)CC1	-6.3	-4.2
COCCn1cc(NC(=O)NCC2CCN(c3ccc(F)c(F)c3)C2)cn1 (configuration not stated)	-2.1	-2.1
CCCCn1c(=O)[nH]c(=O)c2c1nc(-c1cccc(F)c1)n2C	6.1	2.1
CCOC(=O)C1=C(O)C(=O)N(Cc2ccccc2)C1	-11.9	-17.5
O=C(CC(C(=O)O)C1CCCO1)NC1CCCCC1 (configuration not stated)	6.2	0.4
Cc1nn2c(NCCN(C)C)cc(C(C)C)nc2c1-c1ccccc1	8.4	15.9
CS(=O)(=O)N(CC(=O)Nc1ccc(F)c(Cl)c1)c1cccc(C#N)c1	0.2	-0.4
CCOC(=O)C(=O)N1CCN(c2nccc(-c3ccc(OCC)cc3)n2)CC1	6.1	2.1
COC[C@H]1C[C@H]2C[C@H](O)[C@@H](NC(=O)Nc3cccc(C(F)(F)F)c3)[C@@]2(O)CO1	8.6	19.6
COc1cccc(COc2c[nH]c(C(=O)Nc3ccc(Cl)c(Cl)c3)cc2=O)c1	1.0	-1.2
CC(NC(=O)c1ccn[nH]1)c1nc(-c2ccc(Cl)cc2)no1 (configuration not stated)	8.7	6.9
Cc1cc(OC(=O)c2cccc(C(F)(F)F)c2)c([N+](=O)[O-])c(=O)[nH]1	-0.5	-0.9
COc1cccc(/C=C2\Oc3cc(OCC(=O)Nc4cc(C)ccc4OC)ccc3C2=O)c1	-2.5	-4.3
Oc1oc(-c2ccccc2)nc1C=Nc1cccc(F)c1	-2.6	-8.1
CC(C)c1c(C(=O)O)cnn1-c1ccccc1Cl	-6.5	-17.2
O=C(CSc1nc2[nH]ncc2c(=O)[nH]1)NCc1ccco1	-0.4	-0.6
CCOC(=O)c1c(CN(CC)CC)n(-c2ccccc2)c2cc(Br)c(OC)cc12	-11.4	-20.1
Cc1nn(-c2ccccc2)c(C)c1NC(C(=O)N(C)C)c1ccccc1 (configuration not stated)	-4.9	-4.6
C[C@@H]1CN(c2ccc(C(=O)NCCCc3ccccn3)cn2)C[C@H](C)O1	7.8	4.9
Cc1ccc2c(c1)[C@@H]1[C@H](CO2)CN(CCO)C(=O)CCN1C(=O)C(C)C	2.8	7.5
CCCS(=O)(=O)N1CCN(c2ccc(-n3cccn3)nn2)CC1	-1.2	-5.4
CCCNC1CCS(=O)(=O)C1 (configuration not stated)	2.3	8.3
CSc1cccc(CN(C)C(=O)c2ccc(CO)o2)c1	4.4	2.1
CC(C(=O)NCc1ccccc1Cl)n1nnc(-c2ccco2)n1 (configuration not stated)	-0.9	-1.5
CCc1ccc2c(O)c3c(cc2c1C(=O)OC)C(=O)c1c(O)ccc(O)c1C3=O	-6.3	-11.7
COc1ccc(OCCNC(=O)C2(C)CCN2Cc2csc3ccccc23)cc1 (configuration not stated)	-5.0	-11.7

Ordered by length of the SMILES (low to high): some entries from above
SMILES	NPYLR7 agonist	NPYLR7 agonist max-min
CC(C(=O)NCc1ccccc1Cl)n1nnc(-c2ccco2)n1 (configuration not stated)	-0.9	-1.5
O=C(CSc1nc2[nH]ncc2c(=O)[nH]1)NCc1ccco1	-0.4	-0.6
CCc1ccc2c(O)c3c(cc2c1C(=O)OC)C(=O)c1c(O)ccc(O)c1C3=O	-6.3	-11.7
Cc1ccc2c(c1)[C@@H]1[C@H](CO2)CN(CCO)C(=O)CCN1C(=O)C(C)C	2.8	7.5

Next part:
SMILES	NPYLR7 agonist	NPYLR7 agonist max-min
O=C(CSc1ncnc2c1nnn2Cc1ccccc1)NCc1ccccc1Cl	6.0	11.2
CCOc1ccc(N(CC(=O)NCc2ccco2)S(C)(=O)=O)cc1	-5.6	-13.7
Cc1nccn1S(=O)(=O)c1ccc(Cl)cc1	12.2	8.2
COC(=O)c1ccc(NC(=O)CSc2nnc(C(C)C)c3cnn(-c4ccccc4OC)c23)cc1	-10.9	-17.4
Cc1cccc(OC(C)C(=O)N2CCN(c3ccccc3O)CC2)c1C (configuration not stated)	-5.4	-5.1
COc1ccc(Br)cc1-c1nnc2n(C(C)C)c3c(=O)n(C)c(=O)n(C)c3n12	4.5	-1.4
CSCc1cc(F)ccc1CNC(=O)c1cn[nH]c1C	3.3	3.5
CN(CC1(c2ccccc2)CC1(C)C)C(=O)c1cn(CCc2ccccc2)nn1 (configuration not stated)	3.9	-3.8
CN(CC(F)(F)F)C(=O)CNC(=O)N1CCCC(C(F)(F)F)C1 (configuration not stated)	9.8	5.5
Cc1nsc(N)c1C(=O)N(C)CCOc1ccccc1Cl	6.4	1.1
COCCN(Cc1ccccc1F)Cc1cccc2c1OCO2	-6.3	-10.8
CN1C(=O)CC(COC(=O)c2cccn2C)C1c1cccc(Cl)c1 (configuration not stated)	-1.4	-8.5
CNc1cc(-c2ccc(S(C)(=O)=O)cc2)ncn1	0.9	-1.2
CCc1nc2ccc(C(=O)NCc3ccccc3OC)cn2c1N(CC)Cc1cccc(Br)c1	-2.2	11.6
CCCCCCc1ccc(-c2nc(Cc3ccccc3)no2)cc1	0.2	-0.4
COc1ccc(Nc2cc(C)nc(NCCNC(=O)C(C)(C)C)n2)cc1	7.6	6.2
CCN1CCCCC1C(=O)NCc1cccnc1Oc1ccc(C)c(F)c1F (configuration not stated)	6.2	3.0
CSc1nc(N)nc(SCc2ccc(F)cc2)c1C#N	1.9	3.5
CCOC(=O)CCCC(=O)N1CCC(n2c(=O)oc3ccc(F)cc32)CC1	15.9	25.7
COc1cc([N+](=O)[O-])ccc1NC(=O)C=C(C)C	-2.7	1.8
C=C(C)COc1cccc(C(=O)N2CCC3(CCOCC3)CC2)c1	7.7	2.0
Nc1ccc(F)c(NS(=O)(=O)c2cccs2)c1	-2.7	-5.2
O=C(Cn1cc(OCc2ccccc2F)c(=O)cc1CO)NCc1ccccc1	7.9	5.1
Cn1cc(OCc2ccccc2)c(=O)cc1C(=O)NC1CCCC1	1.5	-0.2
O=C(/C=C/c1csc(-c2ccc(F)cc2)n1)N1CCOCC1	5.1	-0.2
CC1(C)O[C@@H]2C[C@@](OCc3ccc(C#N)cc3)(C(=O)NCCN3CCCC3)CC(OCc3cccc(Cl)c3)[C@@H]2O1 (some centres not stated)	21.9	8.6
CCOCC(=O)Nc1c(C)nc2cc(C)ccn2c1=O	3.2	1.5
COc1ccccc1N1CCN(C(=O)NCC(CC(C)C)N2CCOCC2)CC1 (configuration not stated)	-3.7	1.0
c1ccc(-c2csc3ncnc(NC4CCN5CCCCC45)c23)cc1 (configuration not stated)	-1.7	2.9
CCOC(=O)c1cc(-c2ccc(N3CCN(C(=O)c4nnc(-c5ccccc5)o4)CC3)cc2)n(-c2cccc(F)c2)n1	4.4	1.2
CCCNC(=O)CN1CCN(Cc2ccccc2OCC(F)(F)F)CC1	1.1	-0.7
Cn1nnnc1SCc1cc(Cl)ccc1OC(F)F	-1.2	-2.7
O=C(c1ccco1)N1CCCC(OCc2ccc(Br)cc2)C1 (configuration not stated)	-5.5	-1.6
CCN1C(=S)NC(c2ccc(NC(=O)c3cccc(Br)c3)cc2)C(C(=O)OCCOC)=C1C (configuration not stated)	14.6	10.7
Cc1nc(-c2ccc(CNC(=O)CSc3ncnc4sc(C)c(C)c34)o2)cs1	15.7	13.2
CC(=O)Nc1ccc(OCC(O)CNC(C)C)cc1 (configuration not stated)	-7.5	-11.3
O=S1(=O)CCC(Cc2nc(C3CC3)n[nH]2)C1 (configuration not stated)	18.0	5.8
Oc1oc(-c2ccccc2)nc1C=Nc1ccccc1I	-4.2	-8.0
CCn1ccc(C(=O)Nc2ccc3nc(N4CCN(C)CC4)sc3c2)n1	-0.6	-3.6
CCOC1=NN(c2ccc([N+](=O)[O-])cc2)C(=O)/C1=C\c1cc(OC)c(OC)cc1OC	4.6	13.9
C=CCN(Cc1nccn1Cc1ccc(Cl)c(Cl)c1)C(=O)c1ccccc1F	27.0	35.6
COC(=O)[C@@H]1CCCN1C(=O)c1ccccc1NCc1cccs1	-8.6	-11.0
CN(C)c1ccc(CNC(=O)N2CCCC(NC(=O)OC(C)(C)C)C2)cn1 (configuration not stated)	11.1	9.0
COc1c(F)cccc1C(=O)NC(C)c1n[nH]c(C)n1 (configuration not stated)	-10.3	-10.1
Cc1cc2c(c(-c3cccc(-c4nnc(C)s4)c3)c1)OC(CN)C2 (configuration not stated)	4.2	2.2
COc1cccc(N2C(=O)CSC2c2cccc(NC(=O)c3cccc(Cl)c3)c2)c1 (configuration not stated)	-4.9	7.9
CC(=O)NC(C(=O)OCC(=O)N(c1ccccc1)c1ccccc1)C(C)C (configuration not stated)	2.1	44.3
CCOCCOc1nc(-c2ccc(OC)cc2)n(-c2cccc(NC(=O)Nc3ccc(OC)cc3)c2)n1	-1.5	-1.4
CNC(=O)[C@@H]1[C@@H](OC)C(=O)N(C)C12CCN(C(=O)c1cccc3c1OC(F)(F)O3)CC2	8.0	19.7
Cc1cccn2c(=O)c(C#N)c(SCc3ccccc3)nc12	-1.4	-3.7
CCCc1nnc(NC(=O)c2cccs2)s1	-7.3	-6.9
COc1ccc(-c2ccc(=O)n(CCN3CCN(S(=O)(=O)c4ccc(Cl)s4)CC3)n2)cc1	-4.8	-0.2
CC(C)c1cccc(C(C)C)c1NC(=O)N(CC(=O)N1c2ccccc2-n2cccc2C1c1cccc(Cl)c1)C(C)C (configuration not stated)	2.3	-0.1
C=CCn1c(SCC(=O)c2cc(C)n(Cc3ccco3)c2C)nc2sc(C)c(C)c2c1=O	-6.4	-12.1
COC(=O)NN1C(=O)c2ccccc2C1=O	3.2	8.7
O=C(NCc1cccnc1)c1csc(COc2ccc3c(c2)OCO3)n1	-4.3	-3.5
O=C(NCC1=COCCO1)c1cc(Cl)ccc1Br	-3.1&-4.0	-3.7&-4.3
CCCCC(CC)C(=O)N1CCC(Cc2ccc3c(c2)OCO3)CC1 (configuration not stated)	3.8	8.2
Cc1cc2c(=O)n(C)c(SCC(=O)NCCc3ccccc3)nc2s1	-6.6	-7.5
CCCC(=O)N(CC(=O)N(CCc1c[nH]c2ccccc12)Cc1ccc(OC)cc1)CC(C)C	-3.5	7.6

The list continues.
SMILES	NPYLR7 agonist	NPYLR7 agonist max-min
Cc1cccc(CN(CCC(C)C)CC(O)COCc2ccco2)c1 (configuration not stated)	-4.0	-0.7
C[C@H](C(=O)NCCN1CCOCC1)N1Cc2ccc(-c3cccnc3)nc2C1=O	-6.4	-3.3
Cc1cc(Br)ccc1NC(=O)c1ccc([N+](=O)[O-])o1	2.8	8.9
Cc1ccc(Cn2c(=O)c3c(nc4n(C(C)C)c(C)cn34)n(C)c2=O)cc1	-0.5	8.3
C=C1CC(=O)C2=C(C)C[C@H](OC(=O)CC(C)C)C3[C@H](OC(=O)[C@H]3C)C12 (some centres not stated)	1.3	1.3
C#CCNC(=O)C1CCC(=O)N(c2ccc(C)cc2)C1c1ccccc1OC (configuration not stated)	-7.0	-7.8
O=C(C=Cc1ccsc1)N1CCN(S(=O)(=O)c2ccccc2C(F)(F)F)CC1	3.5	-0.4
CC(C)CC(N)c1csc(Nc2ccc(C(=O)N(C)Cc3ccccc3)cn2)n1 (configuration not stated)	-5.8	-13.3
O=C(CSc1cn(CCNC(=O)c2cccs2)c2ccccc12)Nc1ccccc1	0.3	-1.4
CN(C(=O)COc1ccc(Nc2ccccc2)cc1)C1CCS(=O)(=O)C1 (configuration not stated)	-0.6	-5.3
CC(=O)C1(c2ccccc2)CCN(c2cc(Cl)nc(SCc3cccc(C(=O)Nc4ccc(C)c(C)c4)c3)n2)CC1	13.3	26.4
CC(C)NC(=O)NCCc1ccc(NS(=O)(=O)c2ccccc2F)cc1	4.2	1.8
CCN(C(=O)C(C)N(C)Cc1cccc(Cl)c1Cl)C1CCS(=O)(=O)C1 (configuration not stated)	-0.7	-1.6
CC(C)NC(=O)C(=O)N1CCOC(c2ccc(Cl)cc2)C1 (configuration not stated)	1.1	-8.2
CCOc1ccccc1CN1CCNC(=O)C1CC(=O)N(C)CCOc1ccccc1 (configuration not stated)	-3.4	-5.3

These rows are one share of the data (hit frequency here may not be typical).
